Compound activity from PubChem.
GIV Gai3 FP – inhibitors of GIV peptide binding to Galpha-i3, primary screen, biochemical, fluorescence polarization, FITC-GIV GBA peptide, rat Galphai3. Guanine nucleotide-binding protein G(i) subunit alpha-3 (Rattus norvegicus), P08753. 90 min; active compounds read low; scaled: aluminum fluoride 0%, vehicle 100%. percent of control (FP), % (concentration not given with the values). 0.42% of 210,000 active. AID 1224905, 2016;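 active means replicate mean at 85% of control or lower, very high polarization wells dropped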;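 further: wells of about 15 µL received 100 nL stock; the first replicate is given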
Target sequence (P08753 whole entry, looked up): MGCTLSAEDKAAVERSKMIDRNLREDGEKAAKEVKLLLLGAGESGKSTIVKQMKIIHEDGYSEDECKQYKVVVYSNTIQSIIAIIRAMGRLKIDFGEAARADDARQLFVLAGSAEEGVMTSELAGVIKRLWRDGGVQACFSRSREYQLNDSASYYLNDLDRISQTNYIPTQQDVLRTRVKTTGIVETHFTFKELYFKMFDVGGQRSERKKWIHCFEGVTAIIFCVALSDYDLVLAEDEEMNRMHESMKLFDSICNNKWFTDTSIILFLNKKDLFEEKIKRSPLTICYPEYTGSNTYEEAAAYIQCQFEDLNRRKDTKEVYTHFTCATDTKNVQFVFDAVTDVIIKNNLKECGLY
Starred values were filed as active, the others as inactive. An excerpt; count on the stated rates, not on these rows.

SMILES	GIV Gai3 FP
N#CC1=C(SCC(=O)Nc2ccc(Cl)cc2)NC2=C(C(=O)CCC2)C1c1cccs1 (centres undefined)	98
CCCCOc1cccc(NC(=O)CSc2nc(N)nc(SC)c2C#N)c1	116
COc1ccc(CCNC(=O)c2sc3nc(C)nc(N4CCOCC4)c3c2C)cc1OC	102
CCOC(=O)C1=C(C)NC2=C(C(=O)C(C(=O)OCC)C(c3cccc(OC)c3)C2)C1c1ccc(SC)cc1 (centres undefined)	98
CCCCNC(=O)c1cn(C)nc1S(=O)(=O)N1CCSCC1	104
COc1ccc(C2OCC3(COC(=O)Nc4ccccc4)C(C)C=C(C)C2C3C)cc1 (centres undefined)	110
Fc1ccccc1-c1nnc2ccc3ccccc3n12	104
COc1ccc(N2C(=O)C3C4C=CC(CO)(O4)C3C2=O)c([N+](=O)[O-])c1 (centres undefined)	105
Cc1noc(C)c1C1CCCN1Cc1ccc(F)cc1F (centres undefined)	101
CC1(C)c2ccccc2N2CCC(=O)NC21/C=C/c1cccc(Br)c1 (centres undefined)	114
COc1cccc(NC(=O)c2ccc(CN3C(=O)C4CCCN4C(=O)c4ccccc43)cc2)c1 (centres undefined)	103
N#Cc1cc(C#N)c(SCC(=O)c2ccc(Br)cc2)nc1N	111
CC(=O)Nc1ccc2nc(SCc3ccc(Br)cc3)sc2c1	105
COc1ccccc1N1CCN(S(=O)(=O)c2cc(C(=O)Nc3ccc(Br)cc3)ccc2F)CC1	109
COc1cccc(NC(=O)/C=C/C(=O)O)c1	103
S=C1NC(c2ccc(Br)cc2)=CC(c2ccccc2)N1 (centres undefined)	105
COc1cc(C2CC(=O)Nc3c2c(C)nn3-c2ccc3nnc(C)n3n2)ccc1OCC(C)C (centres undefined)	101
CCOc1ccccc1-n1c(N)c(C(=O)Nc2ccccc2C)sc1=S	114
CCOc1ccc(C2C(N3C(=O)c4ccc([N+](=O)[O-])cc4C3=O)C(=O)N2c2ccc(Cl)c(Cl)c2)cc1 (centres undefined)	106
CCC(C)NC(=O)C(C)N1C(=O)C2CCCCN2C(=O)c2ccccc21 (centres undefined)	102
Cc1nc(-c2ccc3c(c2)n(CC(=O)N2c4ccccc4CC2C)c(=O)n3C(C)C)no1 (centres undefined)	98
COc1ccc(N2CCN(C(=O)c3ccc4nc(-c5ccc(OC)c(OC)c5)c(-c5ccc(OC)c(OC)c5)nc4c3)CC2)cc1	100
O=C(NCc1ccc(F)cc1)N1CCC(N2CCN(Cc3cccc(F)c3)C(=O)C2=O)CC1	99
O=C(COC(=O)c1ccc2c3c1C1C=CCC1CN3CC1CC=CC21)c1ccc(Cl)cc1 (centres undefined)	108
Cc1csc(-c2cc(S(=O)(=O)N3CCC(Cc4ccccc4)CC3)c(C)n2C)n1	107
Cc1ccc(-n2ccc(=O)c(-c3nc(-c4ccc(OC(C)C)cc4)no3)n2)cc1	95
O=C(CNS(=O)(=O)c1ccc2c(c1)CCN2C(=O)N1CCCC1)N1CCc2ccccc2C1	100
C=CCn1c(SCC(=O)N2CCOCC2)nnc1-c1cc2ccccc2o1	107
Cc1cccc(N2CC(O)(c3ccc(F)cc3)[N+]3=C2SCCC3)c1 (centres undefined)	103
O=S(=O)(NCc1ccccc1)c1ccc2c(c1)Cc1cc(S(=O)(=O)NCc3ccccc3)ccc1-2	109
c1cc(-c2noc(-c3ccoc3)n2)cc(-c2ccn[nH]2)c1	106
COc1ccc([C@@H]2C(C#N)=C(N)S[C@H]2C(=O)c2ccccc2)cc1	104
O=C(Cn1cnc2sc3c(c2c1=O)CCCC3)NCCCC(=O)Nc1ccc(Oc2ccccc2)cc1	108
COc1ccc(-n2c(SCc3cc(=O)n4cc(Br)ccc4n3)nc3[nH]ncc3c2=O)cc1	112
COc1cc(/C=C2\C(=O)NN(c3ccccc3)C2=O)ccc1Oc1nc(Cl)ncc1F	111
O=C(O)c1cc(N2C(=O)C3C4c5ccccc5C(c5ccccc54)C3C2=O)ccc1Cl (centres undefined)	108
CCN1C(=O)/C(=C2/C=Cc3ccccc3N2CC)SC1=Nc1ccc(OC)cc1	106
Cc1ccc(Cn2nc3c(S(=O)(=O)N4CCCCC4)cccn3c2=O)c(C)c1	104
COc1ccc(CCNC(=O)c2ccc3c(c2)nc(C)n3-c2ccc(F)cc2F)cc1OC	105
Cc1cc(C2CCCN2Cc2cn(C)nc2C)on1 (centres undefined)	107
CCc1ccc(C2(O)CN(c3cc(OC)ccc3OC)C3=[N+]2CCCS3)cc1 (centres undefined)	117
NS(=O)(=O)c1ccc(-c2ccc(/C=C3\C(=O)N(c4ccc(S(N)(=O)=O)cc4)N=C3C(F)(F)F)o2)cc1	112
Cn1cnc2c1c(=O)n(Cc1nc(N)nc(N3CCOCC3)n1)c(=O)n2C	109
Cc1ccc2c(c1)-c1c(sn(-c3ccc(C(C)C)cc3)c1=S)C(C)(C)N2C	102
CC(C)(C)C(=O)CSc1nc2cc(C(=O)N3CCC4(CC3)OCCO4)ccc2c(=O)n1Cc1ccc2c(c1)OCO2	108
CCOC(=O)C1=C(C)NC2=C(C(=O)C(C(=O)OCC)C(c3ccccc3OC)C2)C1c1ccsc1 (centres undefined)	104
Cc1ccc(C(=O)C(C)c2nc3ccccc3[nH]c2=O)cc1 (centres undefined)	111
O=C1c2ccccc2Sc2cc(-c3noc(-c4ccncc4)n3)ccc2N1C1CC1	102
COc1cc(OC)c(NC(=O)c2cn(-c3cc(-c4noc(C)n4)ccc3C)nc2C)cc1Cl	104
Clc1ccc2c(c1)C(c1ccccc1)=NNC(c1ccccc1)=N2	103
O=C(CCC1CCCN(c2cc(NC3CC3)ncn2)C1)NCCN1CCOCC1 (centres undefined)	106
C#CCSc1c(COC)cnc2c1c(=O)n(C)c(=O)n2C	102
COCc1cc(C)nc(SCC(=O)c2ccc([N+](=O)[O-])cc2)c1C#N	119
CCOc1ccccc1NC(=O)c1cc([N+](=O)[O-])ccc1N1CCN(CC)CC1	107
CCOc1ccc(N=Cc2c(C)[nH]n(-c3cccc(Cl)c3)c2=O)cc1	121
CCOC(=O)Cc1csc(/N=C/c2nc(-c3ccc([N+](=O)[O-])cc3)oc2O)n1	112
N#CC1(C#N)[C@@H]2C=Cc3cc(Cl)ccc3N2[C@@H](C(=O)c2ccccc2)[C@@H]1c1ccc(F)cc1	109
Cc1cc(C)cc(N2C(=O)Nc3ccccc3S2(=O)=O)c1	98
Cc1ccc(C)c(Cn2cccc(S(=O)(=O)N3CCCC3)c2=O)c1	107
COC(=O)C1=C(C(=O)OC)SC2(S1)C(C(=O)OC)=C(C(=O)OC)SC1=C2c2cc(OC)ccc2N(C(=O)C(F)(F)F)C1(C)C	108

Looked up above.
Cc1ccc(C)c(Cn2cccc(S(=O)(=O)N3CCCC3)c2=O)c1 in GIV Gai3 FP → 107
O=C1c2ccccc2Sc2cc(-c3noc(-c4ccncc4)n3)ccc2N1C1CC1 in GIV Gai3 FP → 102

(next part)
SMILES	GIV Gai3 FP
Cc1cc(C)n(-c2cc(NCc3cccc(Br)c3)ncn2)n1	101
CCc1nnc(-c2ccc(S(=O)(=O)N3CCOCC3)o2)o1	98
CC(C)n1c(N2CCCN(C(=O)CC3CCCC3)CC2)cc(=O)n(C(C)C)c1=O	101
Cc1ccc(-c2nccc(Oc3ccc(C(=O)NCc4ccc5c(c4)OCO5)cc3)n2)cc1	96
CN(C)c1ccc(-n2cccc2/C=C2/SC(=Nc3ccc(F)cc3)NC2=O)cc1	103
COc1ccc(S(=O)(=O)Nc2ccc(-c3nnc(-c4ccccc4)o3)cc2)cc1	101
COc1ccc(Cl)cc1NC(=O)c1sc2nc(C)nc(N3CCN(C)CC3)c2c1C	97
Cc1cc2c(cc1C)N(C(=O)C(C)C)C(C)(C)c1ssc(=S)c1-2	93
Brc1ccc(C2Nc3cccc4cccc(c34)N2)cc1	118
O=C(CCC(=O)N1CCc2cc(S(=O)(=O)N3CCOCC3)ccc21)N1CCCC1	100
C/C(=N\NC(=O)c1nnn(-c2nonc2N)c1CN1CCCCCC1)c1ccc(Br)cc1	109
CCCCn1c(SCc2nc(-c3ccc(F)cc3)no2)nc2cc3c(cc2c1=O)OCO3	107
CNc1nc(C(N)=O)c(NC(=O)CSc2ccccc2)s1	107
CC1(C)CC(=O)c2sc(NC(=O)CSc3nc4ccccc4[nH]3)nc2C1	110
CCS/C=C(/NC(=O)c1ccc(C)cc1)[P+](c1ccccc1)(c1ccccc1)c1ccccc1	111
COc1ccccc1CNC(=O)C1CCCN(c2ncnc3c2oc2ccccc23)C1 (centres undefined)	99
Cc1ccc(-c2n[nH]c3c2C(c2ccc(F)cc2)N(c2ccc(F)cc2)C3=O)cc1 (centres undefined)	107
COc1cc(/C=C2/N=C(C3CCCCC3)OC2=O)cc(Br)c1OC(C)=O	109
CCCNC(=O)c1ccc(-c2nccc(Oc3cccc(OC)c3)n2)cc1	105
Cc1ccccc1C1N2CC3(C)CN1CC(C)(C2)C3O (centres undefined)	109
Cc1ccc(-c2noc(-c3cc(N4CCCC4)nc4ccccc34)n2)cc1	225
COc1ccc(CNC(=O)c2cc3nc(-c4ccc(OC)c(OC)c4)cc(C(F)(F)F)n3n2)cc1	108
CCCS(=O)(=O)c1c(S(=O)(=O)CCC)c2ccccn2c1C(=O)N/N=C/C=C/c1ccccc1	109
COC(=O)Nc1ccc(S(=O)(=O)N2CCC(C(=O)Nc3ccc4c(c3)OCO4)CC2)cc1	114
O=c1oc2ccc([N+](=O)[O-])cc2cc1-c1nnc(Nc2ccc(F)cc2F)s1	106
CC(C)CNC(=O)CN1c2ccccc2NC2=C(C(=O)CCC2)C1c1cccs1 (centres undefined)	98
CN(C)C(=O)c1cc2c(s1)CCC(C(=O)Nc1ccc3c(c1)OCCO3)C2 (centres undefined)	110
Cc1cccc(N2CCN(c3ccc4nnc(CCc5nc(-c6ccncc6)no5)n4n3)CC2)c1	100
CCCn1cnc2cc(-c3noc(CN4C(=O)COc5ccccc54)n3)ccc21	99
O=C(N/N=C\c1cn(-c2ccccc2)nc1-c1cccnc1)c1ccncc1	106
Cc1ccc(-c2nc3ncccn3c2NC(=O)Cc2ccccc2)cc1	105
CCOC(=O)C1(C)C=C(Nc2ccc([N+](=O)[O-])cc2)C(=O)N1c1ccc([N+](=O)[O-])cc1 (centres undefined)	107
Cc1nnc(NC(=O)COC(=O)CSc2nc(-c3ccccc3)cc(-c3ccccc3)n2)s1	115
Cc1cccc(N(C)S(=O)(=O)c2ccc3[nH]cc(C(=O)N4CCN(c5ccccc5)CC4)c(=O)c3c2)c1	110
COc1ccc(C2=N/C(=C\C=C\c3ccccc3OC)C(=O)O2)c(Br)c1	102
CCOc1cccc2c1OC(c1ccc(OC)c(OC)c1)N1N=C(c3ccc(F)cc3)CC21 (centres undefined)	110
C=CCN1C(=O)/C(=C2/Sc3ccc(OC)cc3N2CC)SC1=S	109
CC(=O)Nc1ccc2c3c(cc(=O)n2C)-c2ccccc2C(=O)c13	85*
COc1ccc2cc(C(=O)N3CCC(CC(=O)NCCc4c[nH]c5ccc(Cl)cc45)CC3)[nH]c2c1	108
Cc1ccc(NS(=O)(=O)c2cc(-c3nc(C)c(C)s3)sc2C)cc1	101
O=C(CN1C(=O)COc2ccccc21)N1CCC(NS(=O)(=O)c2ccc(Cl)cc2)CC1	98
COc1ccc(NC(=O)Nc2ccc3c(c2)N(C(=O)c2ccc(C)cc2)CC3)cc1OC	110
O=C1CN(Cc2ccccc2)S(=O)(=O)c2ccccc2N1Cc1cccc(F)c1	104
COc1ccc(NC(=O)c2sc3nc(C)nc(N4CCC(C)CC4)c3c2C)c(OC)c1	110
O=C(NCC1CCCO1)c1ccc2ccnc(N3CCN(c4ccc(F)cc4)CC3)c2c1 (centres undefined)	110
COCCCNC(=O)c1cc(S(=O)(=O)N2CCc3ccccc32)ccc1Sc1cccc(Cl)c1	101
Cc1nc2sccn2c(=O)c1NC(=O)C1CC1	100
COc1cc(OC)c(C2N(c3ccccc3)CCN2c2ccccc2)cc1Br	113
O=C(NC1CCCC1)C1CCCN(c2ncc(-c3ccccc3)cn2)C1 (centres undefined)	105
COCC(=O)N1CCC2(CC1)NC(=O)c1ccccc1O2	103
COc1ccccc1Nc1nc(-c2ccccc2O)nc2ccccc12	99
CC1Cc2cc(S(=O)(=O)NCC3CCC(C(=O)N4CCCCC4)CC3)ccc2N1C(=O)C1CC1 (centres undefined)	96
CCc1ccccc1-n1c(SCc2cc(=O)n3cc(Br)ccc3n2)nc2[nH]ncc2c1=O	108

Compounds above containing bromine:
SMILES	GIV Gai3 FP
CC1(C)c2ccccc2N2CCC(=O)NC21/C=C/c1cccc(Br)c1 (centres undefined)	114
N#Cc1cc(C#N)c(SCC(=O)c2ccc(Br)cc2)nc1N	111
CC(=O)Nc1ccc2nc(SCc3ccc(Br)cc3)sc2c1	105
COc1ccccc1N1CCN(S(=O)(=O)c2cc(C(=O)Nc3ccc(Br)cc3)ccc2F)CC1	109
S=C1NC(c2ccc(Br)cc2)=CC(c2ccccc2)N1 (centres undefined)	105
COc1ccc(-n2c(SCc3cc(=O)n4cc(Br)ccc4n3)nc3[nH]ncc3c2=O)cc1	112
Cc1cc(C)n(-c2cc(NCc3cccc(Br)c3)ncn2)n1	101
Brc1ccc(C2Nc3cccc4cccc(c34)N2)cc1	118
C/C(=N\NC(=O)c1nnn(-c2nonc2N)c1CN1CCCCCC1)c1ccc(Br)cc1	109
COc1cc(/C=C2/N=C(C3CCCCC3)OC2=O)cc(Br)c1OC(C)=O	109
COc1ccc(C2=N/C(=C\C=C\c3ccccc3OC)C(=O)O2)c(Br)c1	102
COc1cc(OC)c(C2N(c3ccccc3)CCN2c2ccccc2)cc1Br	113
CCc1ccccc1-n1c(SCc2cc(=O)n3cc(Br)ccc3n2)nc2[nH]ncc2c1=O	108
